Screening data: PubChem, NMMLSC
Bead autofluor = flagged as autofluorescent in microsphere protease counterscreen; fluorescence intensity (no concentration beside the values); compound autofluorescence counterscreen, microsphere flow cytometry; hits give high values; actives 3.1% (n = 360,000); AID 624483;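 active means at least 3 SD above the mean of all compounds, about 16000 in these data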;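 further: 100 nL of 1 mM stock went into each well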
Active calls of the source: *.

#	smiles	Bead autofluor
1	CC(=O)Oc1ccc(Cn2c(C)c(C(=O)NCc3ccc4c(c3)OCCO4)sc2=O)cc1	4818
2	COc1cccc(C(C)(O)c2nc(-c3cncnc3)cs2)c1 (configuration not stated)	3691
3	C[C@H](O)[C@@H]1C(=O)N2CCc3c([nH]c4ccccc34)[C@@H]2C[C@@H]1N(C)C(=O)Nc1cccc2ccccc12	6058
4	O=C(O)c1cccc(N2C(=O)C=CC2=O)c1	3012
5	O=C(COC(=O)c1cc([N+](=O)[O-])ccc1N1CCOCC1)NCc1ccccc1	3061
6	C#CCNC(=O)C[C@@H]1C[C@@]2(C(=O)OCC)CCCC=C2N(CCCCCCCC)C1=O	6193
7	O=C(Nc1ccc2c(c1)OCCO2)C(C1CC1)N1CCN(c2ccc(F)cc2)CC1 (configuration not stated)	5812
8	COCCNC(=O)C1(C)CCCN(C(=O)c2ccccc2C(F)(F)F)C1 (configuration not stated)	3951
9	Nc1ccn([C@@H]2O[C@H](CNCc3cccc(OC4CCCC4)c3)[C@@H](O)[C@H]2O)c(=O)n1	3774
10	Nc1ccn([C@@H]2O[C@H](CN=C3NS(=O)(=O)c4ccccc43)[C@@H](O)[C@H]2O)c(=O)n1	3607
11	CCCC(C)(C)C(=O)N1CCC1(C)C(=O)Nc1ccc(OC)c(OC)c1 (configuration not stated)	3923
12	Cn1ccc2c(-c3ccc(F)cc3F)cc3c(c21)C1CCC3C1 (configuration not stated)	4959
13	c1ccc(CN2Cc3ccccc3-n3nncc3C2)nc1	3738
14	Cc1cc(=O)[nH]c2nc3ccccc3n12	3568
15	Cc1ccccc1S(=O)(=O)N(C)C[C@H]1OCc2cnnn2CCCC(=O)N([C@H](C)CO)C[C@H]1C	3687
16	COC(=O)CC1OCC=C2CN3CCC45C6=CC(=O)C(=O)C([N+](=O)[O-])=C6NC4C1C2CC35 (configuration not stated)	3602
17	O=C(NCCN1CCNC1=O)c1ccc2sc([C@H]3C[C@H](O)[C@@H](CO)O3)nc2c1	3700
18	CCCCCCCCN1C(=O)[C@H](CC(=O)NCCC(C)C)C[C@@]2(C(=O)OC)CCCCC=C12	5964
19	COc1cccc(C(=O)N2CCC[C@H]2C(=O)N2CCC[C@H]2C(=O)N[C@@H](C)c2ccccc2)c1	5629
20	COc1ccc2ccccc2c1C=NN1CCCCC1	3735
21	COCCN1C[C@@H](CO)O[C@@H](n2cnc3c(NC4CC4)ncnc32)C1	3405
22	Cc1cccc(Cn2c(NC3CCCC3)nc3c2c(=O)[nH]c(=O)n3C)c1	3845
23	COc1cc(F)ccc1-c1csc(C(O)(c2ccccc2)C(F)(F)F)n1 (configuration not stated)	3639
24	COc1ccc([C@H]2C[C@H](n3cc(COC(=O)c4ccccc4)nn3)[C@@H](O)CN2CC2CCCCC2)cc1	4136
25	O=C1NC[C@H](Cc2ccc(O)cc2)N(C[C@H]2CCCN2C[C@H](Cc2ccccc2)N2C[C@H](Cc3ccccc3)N(CCc3ccccc3)C(=O)C2=O)C1=O	5956
26	CCOC(=O)CSc1nc2nc(Cl)c(Cl)nc2[nH]1	3812
27	COCCNC(=O)C1(C)CCCN(C(=O)c2cc(C)on2)C1 (configuration not stated)	3369
28	COc1ccc(NC(=O)CNCc2cccs2)c(OC)c1	3706
29	Cc1c(C(=O)NCc2ccc3c(c2)OCCO3)sc(=O)n1Cc1ccccc1C#N	4107
30	CC1(Cc2cccc(C(F)(F)F)c2)C(=O)Nc2c(Cl)ccc(Cl)c21 (configuration not stated)	4119
31	COc1ccc(-c2coc3c(C(=O)Nc4cccnc4)cccc23)c(C)c1	3593
32	COCCNc1nc(NCc2cccc(OC)c2)c2sccc2n1	3924
33	CN(Cc1ccccc1)Cc1cc(=O)oc2ccc3ccccc3c12	6128
34	CC(C)OC(=O)N(C)C[C@@H]1OCc2cn(nn2)CCCC(=O)N([C@H](C)CO)C[C@H]1C	3099
35	CN(C(=O)COC(=O)COc1ccc2ccccc2c1)c1ccccc1	4039
36	COc1ccc(Cc2c(-c3cccc(Br)c3)nc3ccc(Cl)cn23)c(C)c1	7038
37	CCOC(=O)C1(C)CCN1C(=O)c1cccc2ccccc12 (configuration not stated)	3400
38	CCCNC(=O)C1(C)CCN(Cc2ccc(C)c3ccccc23)C1 (configuration not stated)	3532
39	CCCCOCCCNC(=O)C[C@@H]1C[C@@]2(C(=O)OC)CCCCC=C2N(Cc2ccco2)C1=O	6270
40	COc1ccc(Nc2nc3cc(-c4ccsc4)sc3c(=O)n2C)cc1OC	3772
41	CNC(=O)C1Cc2c(-c3ccccc3Oc3ccccc3)ccnc2O1 (configuration not stated)	3897
42	CC(C)Nc1ncnc2c1ncn2[C@H]1CN(Cc2ccco2)C[C@@H](CO)O1	3847
43	CCCCCCN1CCN(C2CN(C3CCCCC3)S(=O)(=O)C2)CC1 (configuration not stated)	5989
44	CCc1nc2c(OCCOc3ccc(F)cc3)cccn2c1N(C)C(=O)c1ccccc1F	3006
45	O=C(NCc1nnnn1-c1ccc(F)cc1)c1ccc2c(c1)OCO2	2991
46	Nc1[nH]c(C(=O)c2ccccc2)c(-c2ccccc2C(F)(F)F)c1C(=O)c1cccs1	4207
47	C/C=C1\NC(=O)[C@H](C)NC(=O)[C@@H](NC(=O)[C@H](Cc2ccc(O)cc2)NC(=O)[C@@H](NC(=O)/C(C)=C/C)C(C)C)[C@@H](C)OC(=O)[C@H](CCCc2ccc(O)cc2)NC(=O)[C@@H](CCC(=O)O)NC1=O	4229
48	COc1ncnc2c1ncn2CCCNCc1ccc2c(c1)OCO2	2924
49	Cn1nc(C(C)(C)C)cc1N1C(=O)CCC1(C)C(=O)Nc1ccc2c(c1)OCCO2 (configuration not stated)	5951
50	CCc1nc2ccc(C(=O)Nc3cccc(NS(C)(=O)=O)c3)cn2c1N(CCC(C)C)CCN(C)C	2877
51	Cc1cn([C@H]2C[C@H](O)[C@@H](CNCc3ccc4ncccc4c3)O2)c(=O)[nH]c1=O	3225
52	CC(C)Nc1ncnc2c1ncn2[C@H]1CN(Cc2ccc3c(c2)OCO3)C[C@@H](CO)O1	3485
53	COCCCN1C(=O)C(CC(=O)NCc2cccs2)CC(C(=O)N(C)C)=C1C (configuration not stated)	3396
54	COc1ccccc1N1CCN(S(=O)(=O)CCNC(=O)c2ccco2)CC1	2972
55	Cc1csc(N=Nc2ccc(N(C)C)cc2)[n+]1[O-]	4184
56	CC(=O)c1ccc(OC2(C)CCN(Cc3csc4ccccc34)C2)cc1 (configuration not stated)	4078
57	CC(=O)Oc1cc2c(cc1OC(C)=O)C(=O)CCCC2	3911
58	COc1ccc([C@H]2CC(=O)C[C@@H](CCn3cc(-c4nccn4C)nn3)O2)cc1	3996
59	COc1ccc(NC(=O)c2cc(-c3ccc(F)cc3C)n[nH]2)cc1OC	3013
60	CSCCC(c1nnnn1-c1c(C)cccc1C)N1CCC2(CC1)C(=O)NCN2c1ccccc1 (configuration not stated)	4086

(further entries)
#	smiles	Bead autofluor
61	Cc1cccc(C)c1-n1nnnc1C(C1CC1)N1CCN(C/C=C/c2ccccc2)CC1 (configuration not stated)	6761
62	CCCCN1C[C@H](CSC)[C@@H](CC(=O)Nc2ccc(OC)cc2)C1=O	3070
63	COc1ccc(C(C#N)=C2C=CC(=NO)c3ccccc32)cc1	5676
64	O=C(O)Cn1nnc(-c2ccccc2)c1COc1ccccc1	3548
65	Fc1cccc(Cc2c(-c3ccc(Cl)cc3)nc3c(Cl)cc(C(F)(F)F)cn23)c1	5907
66	O=C(NC(Cc1nn[nH]n1)C(=O)OCc1ccccc1)OCc1ccccc1 (configuration not stated)	3043
67	CCNC(=O)C1(C)CCN(C(=O)c2cccc3ccccc23)C1 (configuration not stated)	3517
68	CN1CCC(N2CCN(C3CN(Cc4ccc(F)cc4)S(=O)(=O)C3)CC2)CC1 (configuration not stated)	5786
69	Cn1nc(C(C)(C)C)cc1C(=O)N1CCCC(c2cc(C(=O)NCc3ccccc3)no2)C1 (configuration not stated)	3938
70	CC1(C(=O)NCc2ccc(C(F)(F)F)cc2)CCN1Cc1cc2ccccc2o1 (configuration not stated)	3901
71	Cc1cccc(C)c1-n1nnnc1C(c1ccnc2ccccc12)N(CCC#N)Cc1ccccc1 (configuration not stated)	5368
72	Clc1ccccc1OCCNc1nc(NCC2CC2)nc2ccsc12	3153

Compounds above containing a Cl atom, in the order listed:
#	smiles	Bead autofluor
26	CCOC(=O)CSc1nc2nc(Cl)c(Cl)nc2[nH]1	3812
30	CC1(Cc2cccc(C(F)(F)F)c2)C(=O)Nc2c(Cl)ccc(Cl)c21 (configuration not stated)	4119
36	COc1ccc(Cc2c(-c3cccc(Br)c3)nc3ccc(Cl)cn23)c(C)c1	7038
65	Fc1cccc(Cc2c(-c3ccc(Cl)cc3)nc3c(Cl)cc(C(F)(F)F)cn23)c1	5907
72	Clc1ccccc1OCCNc1nc(NCC2CC2)nc2ccsc12	3153

Further entries.
#	smiles	Bead autofluor
73	CCCc1nc2ccc(C)cn2c1Cc1ccccc1	6001
74	CC1(C(=O)NS(=O)(=O)c2ccc(Cl)cc2)CCN1C(=O)Cc1cccs1 (configuration not stated)	3814
75	C[C@@H]1CN([C@@H](C)CO)C(=O)CCCn2nncc2CO[C@H]1CN(C)C(=O)Oc1cccc2ccccc12	3532
76	COc1cccc(C(C)(O)c2nc(-c3ccc4c(c3)OCO4)cs2)c1 (configuration not stated)	2963
77	CC(=O)c1ccc(N2CCN(S(=O)(=O)c3ccc4c(c3)C(Cl)(Cl)C(=O)N4)CC2)cc1	3867
78	CCc1nc2ccc(C(=O)NCCCN(C)C)cn2c1N(C)Cc1ccc(OC)cc1	4117
79	C[C@@H]1CN([C@@H](C)CO)C(=O)CCCn2nncc2CO[C@@H]1CN(C)C(=O)CCC(F)(F)F	2882
80	C[C@H]1CN([C@@H](C)CO)C(=O)CCCn2cc(nn2)CO[C@@H]1CN(C)S(=O)(=O)c1ccccc1C#N	2923
81	CSc1nc(S(=O)(=O)c2ccc(C)cc2)c(N2CCOCC2)s1	2916
82	CC(=O)c1ccc(S(=O)(=O)N2CCN(c3ccnc4cc(Cl)ccc34)CC2)cc1	3678
83	CCCCCCn1cc(CN2CC(N3CCCCC3)CS2(=O)=O)nn1 (configuration not stated)	4083
84	CC(Nc1nc(-c2cccnc2)nc2ccccc12)c1ccccc1 (configuration not stated)	4175

The last 5 compounds of the part above come first, to join the parts.
#	smiles	Bead autofluor
80	C[C@H]1CN([C@@H](C)CO)C(=O)CCCn2cc(nn2)CO[C@@H]1CN(C)S(=O)(=O)c1ccccc1C#N	2923
81	CSc1nc(S(=O)(=O)c2ccc(C)cc2)c(N2CCOCC2)s1	2916
82	CC(=O)c1ccc(S(=O)(=O)N2CCN(c3ccnc4cc(Cl)ccc34)CC2)cc1	3678
83	CCCCCCn1cc(CN2CC(N3CCCCC3)CS2(=O)=O)nn1 (configuration not stated)	4083
84	CC(Nc1nc(-c2cccnc2)nc2ccccc12)c1ccccc1 (configuration not stated)	4175
85	Cn1c(=O)[nH]c(=O)c2c1nc(Br)n2Cc1ccc(Cl)cc1	3801
86	O=C(NCc1ccc(Cl)cc1)N1CCN(C(=O)c2ccccc2)CC1	3945
87	CC(C)(C)NC(=O)CN(C(=O)CCC(=O)Nc1nccs1)c1ccccc1F	2917
88	COc1ccc(C(O)c2nc(-c3cccc(O)c3)cs2)cc1 (configuration not stated)	2819
89	Cc1ccc(CN2CC(N3CCCC3)CS2(=O)=O)cc1 (configuration not stated)	4384
90	CCCCCCN1C[C@H](n2cc(C3CC3)nn2)[C@@H](O)C[C@@H]1c1ccc(Cl)cc1	3912
91	CC(C)C1C(=O)N(Cc2cn(Cc3ccco3)nn2)CCS(=O)(=O)N1Cc1ccc(-c2ccccc2)cc1 (configuration not stated)	3380
92	OCC[C@@H]1C[C@H](O)[C@@H](O)[C@]2(OCCc3cc(Cl)ccc32)O1	6069
93	CCCCCC(=O)N1C[C@@H](O)[C@H](n2cc(COC(=O)c3ccccc3)nn2)C[C@@H]1c1ccc(Cl)cc1	4184
94	C[C@@H]1CN([C@@H](C)CO)C(=O)c2cc(Br)cnc2O[C@H]1CN(C)C(=O)c1ccncc1	3174
95	COc1ccc(CNC(=O)C2(C)Cc3c(-c4ccc5c(c4)OCO5)ccnc3O2)cc1OC (configuration not stated)	3853
96	COCC(=O)Nc1ccc2c(c1)[C@@H]1C[C@H](CC(=O)OC)O[C@H](CO)[C@@H]1O2	4639
97	Cc1ccc(-c2ccc(CN3C(C)C(=O)N(Cc4cn(Cc5ccco5)nn4)CCS3(=O)=O)cc2)cc1 (configuration not stated)	3436
98	C[C@@H]1CCCCO[C@H](CN(C)C(=O)Nc2ccc3c(c2)OCO3)[C@@H](C)CN([C@H](C)CO)C(=O)c2cc(NS(=O)(=O)c3ccc(F)cc3)ccc2O1	2948
99	O=C(O)C(=Cc1ccncc1)c1cccc2ccccc12	4046
100	COCCCNC(=O)c1ccc(-c2c(C)noc2C)c2ccoc12	3520
101	CC1(C(=O)NCc2cccnc2)CCN1C(=O)Cc1cccs1 (configuration not stated)	3645
102	CCc1nc2ccc(C(=O)NCc3ccc(OC)cc3)cn2c1N(CC)CCOC	4351
103	CCN(CC)C(=O)C1=C(C)N(CCCOC)C(=O)C(CC(=O)NCc2cccs2)C1 (configuration not stated)	3081
104	CN1CCN(c2ccc(CNC[C@H]3O[C@@H](n4cnc5c(=O)[nH]c(N)nc54)[C@H](O)[C@@H]3O)c(F)c2)CC1	4299
105	COc1ccc(NC(=O)N(C)C[C@H]2OCCCC[C@H](C)Oc3ccc(NS(=O)(=O)c4cn(C)cn4)cc3C(=O)N([C@H](C)CO)C[C@@H]2C)cc1	3434
106	CN(C)c1ccc(CC(=O)N2CCCCC2c2cc(C(=O)Nc3ccccc3Cl)no2)cc1 (configuration not stated)	3989
107	CCCc1nc2c3ccccc3ccn2c1Cc1ccc(C)cc1	6504

Not all compounds are listed (hit frequency here may not be typical).
